Screening data as filed in PubChem BioAssay.
UCH37 DUB inh – human UCH37 deubiquitinating enzyme inhibition. inhibition, % (concentration not given with the values). 330,000 tested, 0.33% active. Q9Y5K5. purified proteasome/UCH37, Ub-AMC cleavage fluorescence;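 active = mean of two replicates above 20%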;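 note: 0% = compound-free wells with enzyme and 100% = wells lacking proteasome; stock transfer was 100 nL into about 20 µL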
Target sequence (Q9Y5K5 whole entry, looked up): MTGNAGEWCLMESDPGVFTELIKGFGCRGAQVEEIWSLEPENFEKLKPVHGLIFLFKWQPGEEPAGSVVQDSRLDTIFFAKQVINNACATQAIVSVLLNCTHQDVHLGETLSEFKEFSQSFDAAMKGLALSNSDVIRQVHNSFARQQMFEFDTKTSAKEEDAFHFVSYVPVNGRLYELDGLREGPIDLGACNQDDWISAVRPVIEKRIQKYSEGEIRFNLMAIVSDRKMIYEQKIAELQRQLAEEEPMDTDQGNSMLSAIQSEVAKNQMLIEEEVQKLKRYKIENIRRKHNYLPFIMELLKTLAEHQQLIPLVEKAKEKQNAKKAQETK
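Material: human UCH37 enzyme supplied as purified proteasome complex / Amount: 0.15 nM proteasome as dispensed / Buffer or medium: pH 7.4 Tris-HCl (50 mM) with ovalbumin, ATP-MgCl2, DTT / Times: preincubation 30 min, reaction 25 min, room temperature / Technique: AMC fluorescence from Ub-AMC cleavage, excitation 355 nm, emission 460 nm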
FGF22 binding – binders of recombinant human FGF22 by thermal shift | AID 651658 | SYPRO orange fluorescence; percent of sucrose octasulfate shift, DMSO zero | calls only at 9.99 µM | Q9HCT0 | 340,000 tested, 1.5% active;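 active = melting point raised past a set limit in the mean and every replicate; three in four hits are not shown here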
Target sequence (Q9HCT0 whole entry, looked up): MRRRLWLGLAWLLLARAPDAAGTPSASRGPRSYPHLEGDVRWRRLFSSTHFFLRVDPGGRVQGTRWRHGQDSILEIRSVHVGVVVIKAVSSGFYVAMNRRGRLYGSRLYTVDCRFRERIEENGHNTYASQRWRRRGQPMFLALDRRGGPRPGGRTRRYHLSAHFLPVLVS
Bfl-1 A1 inh – inhibitors of the anti-apoptotic protein A1, read as caspase activation; MEF A1-2A-BIM cells, Caspase-Glo 3/7 luminescence, 3 h; percent of clofoctol response, vehicle zero; caspase activation, % (test concentration not listed); 330,000 tested, 0.066% active;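 active = over half of replicate activation scores above 10%, or exactly half above 10 with the replicate mean above 10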;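 note: wells of about 30 µL received 50 nL stock; many hits fall short of the cut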
rRNA inh HTS – selective bacterial rRNA inhibition in E. coli. 350,000 tested, 1.6% active. GFP signal change (wild-type ribosome), % (concentration not given with the values). E. coli WT GFP vs humanized-ribosome RFP mutants, fluorescence, 24 h; hits give low values; DMSO median 0, no signal -100. AID 720706;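 active = significant combined selectivity score with lowered wild-type GFP, culture density cut under 30%, mutant RFP and density less affected; inactive = any of these conditions unmet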; note: one replicate is shown; some compounds called inactive have numbers as strong as hits
Ecoli growth – inhibitors of Escherichia coli growth. OD600, 23 h; hits give low values. OD600 absorbance (test concentration not listed). 330,000 tested, 0.21% active. AID 1053175;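 active = OD600 absorbance below the run mean of sample wells minus 3.6 SD, in any replicate, cut at about 0.56 in these data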;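 note: stock transfer was 300 nL into about 60 µL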
Beta cell apopt – blocks beta cell apoptosis; INS-1E cytokine-induced death, ATP luminescence, 48 h; percent of positive-control rescue, neutral wells zero; protection from apoptosis, % (no concentration beside the values); 300,000 tested, 0.8% active; AID 435005;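 active = all replicates at 75% or more, or half of them and the mean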;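 note: 0% = cytokine-treated negative control wells and 100% = positive control rescue; higher means more ATP so stronger rescue from cytokine killing; wells of about 40 µL received 100 nL stock; the first replicate is given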
MLL AF4-AF9 inh – blocks AF4 peptide binding to human AF9; AID 651704; 350,000 tested, 0.47% active; AlphaScreen, biotin-AF4 peptide binding to FLAG-AF9; inhibition, % at 10 µM;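 active = every replicate reaching a set inhibition limit, whatever the replicate mean, cut at about 25% in these data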;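 note: 0% = plate neutral control median and 100% = total signal loss; the record names both 10 and 1 µM as test concentration; the first replicate is given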
Target sequence (P42568 whole entry, looked up): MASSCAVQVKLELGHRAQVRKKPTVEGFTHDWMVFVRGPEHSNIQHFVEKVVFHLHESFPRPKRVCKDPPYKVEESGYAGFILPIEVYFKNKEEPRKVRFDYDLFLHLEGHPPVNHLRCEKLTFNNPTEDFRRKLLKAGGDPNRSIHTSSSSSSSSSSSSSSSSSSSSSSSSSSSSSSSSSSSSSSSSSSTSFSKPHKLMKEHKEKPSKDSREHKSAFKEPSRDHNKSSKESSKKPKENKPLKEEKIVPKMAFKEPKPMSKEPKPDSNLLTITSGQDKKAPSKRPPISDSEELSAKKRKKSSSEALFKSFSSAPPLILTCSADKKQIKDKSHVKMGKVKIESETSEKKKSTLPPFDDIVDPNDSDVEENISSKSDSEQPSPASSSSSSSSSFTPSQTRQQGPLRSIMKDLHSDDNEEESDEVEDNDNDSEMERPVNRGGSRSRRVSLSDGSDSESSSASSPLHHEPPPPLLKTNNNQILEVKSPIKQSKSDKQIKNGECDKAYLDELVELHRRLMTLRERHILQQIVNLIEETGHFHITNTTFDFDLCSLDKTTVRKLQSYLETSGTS
T cruzi inh – T. cruzi replication inhibition. T. cruzi beta-gal in NIH3T3, luminescence, 90 h. inhibition, % (no concentration beside the values). 300,000 tested, 1.4% active;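 active = mean inhibition across valid replicates above about 55%, limit read from the data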;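 note: signal also drops with host cell toxicity which is not excluded here; 0% = plate median of DMSO wells and 100% = zero luminescence signal; higher percent means less beta-gal luminescence so fewer parasites; stock transfer was 50 nL into about 50 µL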
rRNA inh HTS OD600 – also measured in rRNA inh HTS; calls as there; OD600 change, %; measured here: OD600 growth;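 optical density of the mix in the first replicate; 0 = DMSO median and -100 = no signal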
rRNA inh HTS RFP – also measured in rRNA inh HTS; calls as there; RFP signal change, %; measured here: RFP humanized mutant strains;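 first replicate; 0 = DMSO median and -100 = no signal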
Active calls of the source: *; i = inactive; . = no result given. This is a subset; the hit share may differ from the screen's.

SMILES	UCH37 DUB inh	FGF22 binding	Bfl-1 A1 inh	rRNA inh HTS	rRNA inh HTS OD600	rRNA inh HTS RFP	Ecoli growth	Beta cell apopt	MLL AF4-AF9 inh	T cruzi inh
CC(=O)Nc1ccc(NC(=O)CNC(=O)c2sc3ccccc3c2Cl)cc1	2.5	i	0.8	2	7	0.4	0.66	-1	2.0	25
O=C(/C=C/c1cccc(F)c1)NNC(=O)c1ccncc1	1.6	i	0.6	0	2	-3.3	0.68	8	-4.0	-15
Cc1nc(SCC(=O)Nc2cc(C)on2)c2c(C)c(C)sc2n1	4.7	.	-0.1	.	.	.	0.71	.	.	0
CC(C)(C)C(=O)Nc1ccc(S(=O)(=O)NC2=NCCCCC2)cc1	-1.2	i	.	8	15	-3.5	0.62	.	2.0	.
O=C(Nc1nc(-c2ccccn2)cs1)C12CC3CC(CC(O)(C3)C1)C2	4.1	i	1.2	-33	-36	-7.6	0.7	3	-0.1	-16
CC(C)CN(C(=O)COC(=O)c1ccc([N+](=O)[O-])o1)C1CCS(=O)(=O)C1 (stereo not given)	3.1	i	-0.1	12	-1	-3.7	0.68	-2	2.1	-2
CN1C(=O)Cc2cc(S(=O)(=O)Nc3ccc(N4CCOCC4)cc3)ccc21	0.5	i	0.6	7	6	2.7	0.7	-4	4.2	-14
CCn1c(=O)c2sccc2n(CC(=O)NC2CCCC2)c1=O	3.4	i	-0.3	10	6	-1.9	0.69	.	-0.1	-2
Cc1cccc2cc(C3CC(c4cccs4)=NN3S(C)(=O)=O)c(Cl)nc12 (stereo not given)	-4.6	i	-0.8	6	1	-4.1	0.72	1	4.1	11
Cc1ccc2sc(NC(=O)c3ccc(N4C(=O)CCC4=O)cc3)nc2c1C	-21	i	2.0	5	14	-0.6	0.81	.	-3.0	-12
O=C(Cn1nnc(-c2ccccc2F)n1)Nc1ccc(S(=O)(=O)NC2CCCC2)cc1	4.2	.	-0.7	.	.	.	0.72	.	.	13
O=c1cc(O)n(-c2ccccc2)c(=S)[nH]1	6.1	.	1.1	.	.	.	0.7	2	.	-5
CC(C)(C)NC(=S)NNC(=O)c1ccccc1Cl	3.5	.	0.2	.	.	.	0.69	2	.	-6
O=[N+]([O-])c1ccc(N2CCN(CC3CCCCC3)CC2)cc1	3.8	i	0.1	-11	-12	1.6	0.63	7	20	2
COc1ccc([N+](=O)[O-])cc1N(CC(=O)N1CCCC1)S(C)(=O)=O	2.1	i	0.0	6	9	-1.5	0.66	-2	-1.2	5
COc1ccc(CCC(=O)N2CCc3ccccc32)cc1	1.8	.	-1.1	.	.	.	0.68	-8	.	0
Cc1ccc(C)c(S(=O)(=O)Nc2nc3ccc(S(N)(=O)=O)cc3s2)c1	0.7	.	0.4	-38	-38	2.4	0.69	-2	-4.4	9
Cc1ccc(C)c(OCCCCN2CCCCC2)c1	3.4	i	-8.5	2	-2	-6.2	0.69	-4	-0.1	12
O=C(CN1C(=O)C(=O)N(C2CCCC2)C1=O)Nc1ccc(N2CCOCC2)cc1	1.2	i	0.4	3	6	-0.4	0.68	-2	0.9	10
CN(C)c1ccc(Sc2nnc(NC(=O)Nc3ccc(Cl)cc3Cl)s2)cc1	1.5	.	-0.1	.	.	.	0.72	-8	.	12
CCCN(CC(=O)Nc1ccccc1C)C(=O)CCN1C(=O)c2cccc([N+](=O)[O-])c2C1=O	5.8	i	0.5	-1	5	0.8	0.71	-3	-0.2	-6
Cc1sc2ncnc(N3CCC(C(=O)Nc4nc(-c5ccc(F)cc5)cs4)CC3)c2c1C	3.4	i	0.5	0	1	-2.6	0.7	.	0.0	43
COc1ccc(-c2nc(CNS(=O)(=O)c3cc(OC)ccc3OC)cs2)cc1	4.4	i	-0.4	11	-30	-4.3	0.7	-1	-2.5	4
CC12c3ccccc3C(c3ccccc31)C1C(=O)N(c3cccnc3)C(=O)C12 (stereo not given)	6.0	i	2.0	-4	-15	-5.6	0.63	0	-1.1	-3
O=C(N/N=C(\Cc1ncc[nH]1)c1ccccc1)c1ccncc1	.	.	0.5	-35	-45	-6.7	.	101*	14	18
CC(C(=O)Nc1ccc(F)c(F)c1F)N1CCCCCC1 (stereo not given)	3.6	.	0.1	4	9	9.1	0.68	-10	.	11
CN(C)C(=O)CS(=O)(=O)c1ccc(Cl)cc1	5.5	i	1.5	9	-3	-1.0	0.68	-5	-3.6	-6
CCN1CCCC1CNC(=O)c1[nH]c2ccc(OC)cc2c1C (stereo not given)	-61	i	1.1	19	17	2.8	0.66	-9	-5.9	16
O=C(COc1ccccc1[N+](=O)[O-])NCC1(N2CCOCC2)CCCCC1	0.8	i	-1.2	-13	-7	3.7	0.67	5	2.4	.
COc1ccc(C(=O)CC(=O)C(=O)Nc2cc([N+](=O)[O-])ccc2OC)cc1	5.3	.	-1.0	.	.	.	0.7	0	.	-2
Cc1ccccc1CSCC(=O)NCc1ccco1	1.1	i	-0.4	3	-2	-3.7	0.69	0	-17	-5
CC(C)C[C@@H](CO)N1CCN(Cc2ccc(O)cc2)CCC1=O	1.3	i	0.1	6	16	3.2	.	-8	-2.0	-8
O=C(Cc1ccc(-n2c(=O)[nH]c3ccsc3c2=O)cc1)N1CCN(c2ccc(Cl)cc2)CC1	1.6	.	0.3	.	.	.	0.65	18	.	1
COc1ccc(Cl)cc1C(=O)N/N=C/c1ccc(N2CCOCC2)cc1	.	i	0.1	9	8	-2.1	.	1	-0.3	5
O=C(Nc1nccs1)C(NS(=O)(=O)c1ccc(Br)s1)c1ccccc1 (stereo not given)	0.2	.	0.6	.	.	.	0.76	4	.	-4
O=C(CN1CCN(CC(=O)c2ccc(Cl)cc2)CC1)c1ccc(Cl)cc1	0.8	i	.	4	7	-1.8	0.67	.	-5.8	.
COC(=O)c1ccc2nc(C3CCCCC3)c3c(c2c1)CCC3	-0.2	i	0.9	0	9	-18	0.7	.	-2.5	-19
COc1ccc(/C=C/C(=O)N2c3ccccc3Sc3ccc(C(F)(F)F)cc32)cc1	1.5	i	-0.7	.	.	.	0.7	4	4.0	57*
CC(C)(C)C(=O)/C(=C/c1ccncc1)n1cncn1	-0.4	i	0.8	8	7	0.2	0.67	-36	-0.3	47
O=C(Oc1coc(CSc2nnc(NC(=O)C3CC3)s2)cc1=O)c1c(F)cccc1F	.	i	-0.2	12	8	-0.7	.	-10	-1.7	20
Nc1cccn2c(-c3ccc(Cl)c(Cl)c3)cnc12	2.5	i	0.8	-26*	-13*	9.0*	0.66	-4	8.1	15
CCN(CC)c1ncnc2sc3c(c12)CCC3	4.9	.	-0.1	.	.	.	0.74	8	.	9
O=C(Cc1cccs1)Nc1ccc(S(=O)(=O)Nc2ncccn2)cc1	6.4	.	2.0	.	.	.	0.7	0	.	.
CC(NC(=O)CSc1nc2c(c(C(F)(F)F)n1)CCc1ccccc1-2)c1ccccc1 (stereo not given)	-2.0	.	1.3	5	4	-0.5	0.74	-1	.	49
COc1ccccc1NC(=O)CSC1=NCCN1	8.7	.	0.8	.	.	.	0.68	-12	.	.
COc1ccc(S(=O)(=O)Nc2ccc(S(=O)(=O)Nc3ccc(F)cc3)cc2)cc1C	1.7	.	-1.1	.	.	.	0.75	1	.	-1
Cc1ccc(N2CC(C(=O)NCCCn3ccnc3)CC2=O)cc1 (stereo not given)	1.5	.	0.5	.	.	.	0.71	-4	.	0
CCCn1c(SCC(=O)NC2CCCC2)nnc1-c1cccnc1	2.5	i	-0.5	3	2	1.8	0.7	-2	0.9	8
Cc1ccc(-c2csc(/C(C#N)=C/Nc3ccccc3SC(F)(F)F)n2)cc1	3.8	i	-0.1	4	2	-1.7	0.74	-3	-0.2	-5
CCn1c(SCC(=O)NC2CC2)nnc1-c1ccccn1	2.5	i	-0.2	4	9	2.5	0.68	-3	-2.2	-1
CC(C(=O)NCCc1ccc(S(N)(=O)=O)cc1)N1C(=O)CC(C)(C)Sc2ccccc21 (stereo not given)	1.6	i	0.5	8	3	-4.2	0.69	-8	2.1	9
CCOc1ccc(S(=O)(=O)N(C)c2ccc(OCC(=O)NCCc3ccc(OC)cc3)cc2)cc1	2.4	i	0.5	7	8	-10	0.71	3	-4.3	16
COc1ccc(S(=O)(=O)N2CCC(CN3C(=O)c4cccc5cccc(c45)C3=O)CC2)cc1	-197	.	-0.1	.	.	.	0.68	1	.	38
C=CCn1c(Cc2cccs2)nnc1SCC(=O)Nc1ccc(OC)cc1	1.5	.	0.8	.	.	.	0.73	1	.	-1
CCOC(=O)c1cnc2ccc(Br)cc2c1NCCCN1CCOCC1	6.9	i	0.3	-2	0	-1.5	0.67	8	-0.8	4
Cc1cc(NC(=O)CSc2n[nH]c(-c3ccc(Cl)cc3Cl)n2)no1	0.4	i	-0.1	-8	-5	-1.9	0.64	-1	2.4	.
CC(C)OC(=O)CNc1n[nH]c(=S)[nH]c1=O	5.5	i	.	20	13	0.6	0.66	.	-0.6	51
CCOCC(=O)Nc1ccc(OCc2ccccc2)cc1	0.7	i	-4.5	4	-4	-1.1	0.67	1	-1.7	-4
COc1cc2cc(CN(Cc3cccnc3)C(=O)Nc3ccccc3F)c(=O)[nH]c2cc1OC	-90	i	-0.6	2	-3	-0.8	0.66	7	-0.3	-2
Cc1cc(NS(=O)(=O)c2ccc(NC(=S)NC(=O)c3ccc(C(C)(C)C)cc3)cc2)no1	1.0	i	-0.2	-41	-34	-11	0.69	-6	3.3	8
More entries follow:
SMILES	UCH37 DUB inh	FGF22 binding	Bfl-1 A1 inh	rRNA inh HTS	rRNA inh HTS OD600	rRNA inh HTS RFP	Ecoli growth	Beta cell apopt	MLL AF4-AF9 inh	T cruzi inh
COc1ccc(C(CC(=O)O)NC(=O)C(c2ccccc2)c2ccccc2)cc1 (stereo not given)	2.2	i	0.6	5	9	0.2	0.69	-12	-1.6	-3
CC(C)c1nnc(NC(=O)CCC(=O)N2CCN(Cc3ccc(F)cc3)CC2)s1	0.3	i	-0.3	3	5	1.4	0.67	.	0.1	15
CCc1cc(=O)oc2cc(C)cc(OC(C)C(=O)NCc3cccnc3)c12 (stereo not given)	-196	i	-0.4	-4	-7	-0.4	0.62	-2	-4.5	-5
CC(=O)NCCNc1nc2c(-c3cccc(C(F)(F)F)c3)nnn2c2ccccc12	-292	i	0.9	10	8	-0.3	0.68	-5	-1.3	20
OCCc1ccccc1	3.0	i	-0.1	-6	6	-2.3	0.71	3	-3.8	7
CC1=C(C(=O)OC2CCCCC2)C(c2ccccc2F)NC(=O)N1 (stereo not given)	0.8	i	0.9	13	17	3.0	0.66	-9	0.1	13
O=S1(=O)c2ccccc2N=NN1Cc1ccc(Cl)cc1	2.4	.	-0.4	.	.	.	0.72	-4	.	0
CCCn1cc(S(=O)(=O)c2ccc(C)cc2)c(=O)c2cc(OCC)ccc21	-8.2	i	-0.2	-23	-26	9.8	0.71	2	-0.1	-11
